NPYLR7 agonist = mosquito NPYLR7 agonism | HEK293T NPYLR7/Galpha15, GCaMP6s calcium fluorescence | activation, % at 10 µM | 270,000 compounds, 0.15% hits | AID 1259423; in the data active means activation above about 40%;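 further: 0% = vehicle and 100% = reference agonist at the receptor; some compounds past the cut are filed as inactive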
NPYLR7 agonist max-min = also measured in NPYLR7 agonist; calls as there; activation, %; measured here: Max-Min RFU normalised activation; some inactives read as strong as hits;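 span of the calcium signal over five minutes; 0% = vehicle and 100% = native peptide agonist; compound fluorescence can raise it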
Starred values were filed as active, the others as inactive; & = joins results of further samples. Some of the compounds tested; the hit share may differ from the screen's.

| No. | molecule | NPYLR7 agonist | NPYLR7 agonist max-min |
| --- | --- | --- | --- |
| 1 | O=C(c1cnns1)N(Cc1ccc2c(c1)OCO2)c1ccccc1 | 10 | 5 |
| 2 | CCOc1c(C)cnc2c1c(=O)n(CC(=O)N1CCCc3ccccc31)c(=O)n2C | 2 | -1 |
| 3 | COc1ccc(C(N)=O)cc1NC(=O)/C=C/C(C)(C)C | 8 | 6 |
| 4 | Cc1cnccc1-c1cccc(C(C)N2CCCC2)c1 (stereo not drawn) | 6 | 3 |
| 5 | CCN(CCOc1ccccc1F)C(=O)c1ccoc1C | 8 | -3 |
| 6 | O=C(NNC(=O)c1cccc2ccccc12)c1cccn(Cc2ccc(F)cc2)c1=O | -15 | -19 |
| 7 | O=C(Cc1cccc2ccccc12)NNC(=O)c1nn(Cc2ccccc2)c(=O)c2ccccc12 | 17 | 9 |
| 8 | COCCNc1nccc2[nH]c(-c3cccc(OC(F)(F)F)c3)nc12 | -2 | -10 |
| 9 | Cn1c(Cc2ccccc2)nn(CN(C2CCCC2)C2CC2)c1=S | 7 | 3 |
| 10 | COC(=O)CCNc1cccc2c1C(=O)c1ccccc1C2=O | -6 | -8 |

Three structures out of the list, ordered by formula weight, ascending:
| No. | molecule | NPYLR7 agonist | NPYLR7 agonist max-min |
| --- | --- | --- | --- |
| 1 | O=C(c1cnns1)N(Cc1ccc2c(c1)OCO2)c1ccccc1 | 10 | 5 |
| 2 | CCOc1c(C)cnc2c1c(=O)n(CC(=O)N1CCCc3ccccc31)c(=O)n2C | 2 | -1 |
| 6 | O=C(NNC(=O)c1cccc2ccccc12)c1cccn(Cc2ccc(F)cc2)c1=O | -15 | -19 |

Additional results.
| No. | molecule | NPYLR7 agonist | NPYLR7 agonist max-min |
| --- | --- | --- | --- |
| 11 | CCOc1ccc(C2=NCC(CSc3n[nH]c(N)n3)S2)cc1 (stereo not drawn) | 5 | -2 |
| 12 | Cc1cnccc1CNC(=O)c1ccc(OC2CCN(S(=O)(=O)N(C)C)CC2)cc1 | 7 | 3 |
| 13 | CC(C)N(Cc1nnc(-c2ccccc2)o1)C(=O)CSc1ccc(Cl)cc1 | 8 | 10 |
| 14 | COc1ccc(OC)c(C2NC(=O)NC3=C2C(=O)N(C)C3)c1 (stereo not drawn) | 1 | 0 |
| 15 | COc1cccc(S(=O)(=O)NC(=O)c2sccc2C2CC2)c1 | 1 | -1 |
| 16 | CC1(NC(=O)CN2CCCC2C(=O)Nc2ccc(Cl)cc2Cl)CCS(=O)(=O)C1 (stereo not drawn) | 0 | -2 |
| 17 | CCC(C)C(NC(=O)c1ccc(C)c([N+](=O)[O-])c1)C(=O)Nc1nnc(-c2ccc3c(c2)OCO3)s1 (stereo not drawn) | -3 | -2 |
| 18 | c1csc(-c2noc(-c3ccc4c(c3)OCO4)n2)c1 | -7 | -10 |
| 19 | O=C(c1ccc2c3c(cccc13)CC2)C1CCCN(C(=O)c2cc3ccccc3oc2=O)C1 (stereo not drawn) | -6 | -21 |
| 20 | COCCCN1C(C)=CC(=C(C#N)C#N)C=C1C | 2 | -5 |
| 21 | CCCn1c(=O)c2c(nc3n(-c4ccc(C(F)(F)F)cc4)c(C)c(C)n23)n(C)c1=O | 6 | 5 |
| 22 | CC1CCN(c2ccc(NC(=O)Nc3ccccc3C(F)(F)F)cc2C(=O)N2CCCC2)CC1 | -6 | -6 |
| 23 | Cc1ccc2c(n1)[nH]n1c(=O)cc(C)nc21 | 7 | 15 |
| 24 | Cc1nc2ccc(S(=O)(=O)N3CCc4c(nc[nH]c4=O)C3)cc2s1 | 23 | 12 |
| 25 | CC(C)Nc1nc(-c2cc3c4c(c2)CC(=O)N4CCC3)cs1 | 0 | -1 |
| 26 | CCCC(C)(C)C(=O)N1CCC1(C)C(=O)Nc1ccccc1F (stereo not drawn) | 1 | 1 |
| 27 | O=C(NCCCn1nc(-c2cccnc2)ccc1=O)c1ccc(F)c(F)c1 | 9 | 0 |
| 28 | COc1ccccc1-c1cc(C(=O)NCCCN2CCOCC2)nc2c(-c3ccccc3)c(C)nn12 | 1 | 14 |
| 29 | NC(=O)c1nc(-c2ccc([N+](=O)[O-])cc2)nc2c1[nH]c(=O)n2-c1ccc(F)cc1 | 2 | -1 |
| 30 | Cc1ccc(C)c(Nc2ncnc3c2nnn3C)c1 | 14 | 7 |
| 31 | Cc1ccc(-c2csc(-n3nc(C)cc3NC(=O)c3cc(=O)c4ccccc4o3)n2)cc1 | -7 | -10 |
| 32 | CNC(=O)Cn1nc(C(=O)N2CCNCC2C(=O)N2CCCC2)cc1C (stereo not drawn) | 7 | 3 |
| 33 | CN(CC(=O)Nc1sccc1C(N)=O)Cc1cccs1 | 35 | 41 |
| 34 | CCOC(=O)CCCSc1nnc(NC(=O)COc2ccccc2)s1 | -3 | 7 |
| 35 | CC(=O)Nc1ccc(Cl)c(C(=O)NCCC2=CC[C@H]3C[C@@H]2C3(C)C)c1 | -14 | -12 |
| 36 | CN(c1ccc(C(=O)N2CCN(c3ccccc3)CC2)cc1)S(=O)(=O)c1ccccc1 | 5 | 2 |
| 37 | CCOc1ccc(C2c3[nH]c4ccccc4c3CCN2C(=O)Cc2nonc2C)cc1 (stereo not drawn) | 3 | 0 |
| 38 | COc1cccc(-c2noc(-c3ccc(N4CCCC(CO)C4)nc3)n2)c1OC (stereo not drawn) | 20 | 5 |
| 39 | COC(=O)Cn1c(=NC(=O)CCc2ccccc2)sc2cc(Cl)ccc21 | 3 | 0 |
| 40 | FC(F)(F)c1ccc2c(c1)n(Cc1ccccc1Cl)c1[n+]2CCCCC1 | -5 | -7 |
| 41 | CN1C(=CC=NN=c2sc3ccccc3n2C)C(C)(C)c2ccccc21 | 4 | 2 |
| 42 | O=C(NN1C(=O)C2C3CCC(O3)C2C1=O)c1ccc(Br)o1 (stereo not drawn) | 8 | 11 |
| 43 | COc1ccc(N2C(=S)N(Cc3cn(C)c4ccccc34)[C@H]3[C@@H](O)[C@H](O)C[C@@H](C(N)=O)[C@H]32)cc1 | -10 | -15 |
| 44 | Cc1nc(N2CCC(C(=O)NCC3(N4CCOCC4)CCCC3)CC2)nc2ccc(C(C)C)cc12 | 3 | 2 |
| 45 | Cc1ccc2c(NC(=O)c3c(F)cccc3Cl)cccc2n1 | 2 | -1 |
| 46 | CCSc1nnc(-c2ccncc2)o1 | 0 | -4 |
| 47 | CSCC(=O)N1CCC(CCC(=O)N2CCC(Cc3ccccc3)CC2)CC1 | 12 | 7 |
| 48 | O=C(NCc1ccccc1F)N1CCCC(Cn2cc(C3CC3)nn2)C1 (stereo not drawn) | 2 | -4 |
| 49 | COc1ccc(O)c(CN2CCC3(CC2)C(=O)N(C2Cc4ccccc4C2)C(=O)N3CC(C)C)c1 | -5 | -12 |
| 50 | O=C(COCC(F)(F)C(F)F)N1CC2C[C@@H]3CC1C[C@H](C2)C3 | -1 | -3 |
| 51 | O=C(c1ccccc1-c1ncn[nH]1)N1CCOC(c2ccc(Cl)cc2)C1 (stereo not drawn) | 9 | 7 |
| 52 | FC(F)(F)c1cc(-c2ccccc2)nc2ncnn12 | 3 | 1 |
| 53 | Cc1ccc(-n2nnc3c(=O)n(Cc4ccccc4F)cnc32)cc1Cl | -2 | -8 |
| 54 | CC(C)Cc1nnc(NC(=O)C2=NN(C3CCS(=O)(=O)C3)C(=O)CC2)s1 (stereo not drawn) | 1 | 46 |
| 55 | Cc1cc(=O)c(C(=O)Nc2nccs2)nn1-c1cccc(C(F)(F)F)c1 | 7 | 4 |
| 56 | O=C(CCCN1C(=O)c2cccc3cccc(c23)C1=O)N1CCOCC1 | -10 | -11 |
| 57 | O=C1/C(=C/c2cccc(Cl)c2)Oc2c1ccc(O)c2CN1CCN(CCO)CC1 | 50* | 43* |
| 58 | CC(C)NC(=O)[C@@H]1C[C@@H](n2cc(-c3cccc(Cl)c3)nn2)CN1 | 6 | 4 |
| 59 | Fc1ccc(-c2cccc(-n3cnnc3)c2)c(Cl)c1 | 0 | -4 |
| 60 | Cc1cccc(OCc2nc3cc(Cl)ccc3c(=O)o2)c1 | 2 | -7 |

Values in list order from above:
NPYLR7 agonist max-min, compounds 27–35, in order: 0, 14, -1, 7, -10, 3, 41, 7, -12
NPYLR7 agonist, compounds 27–35, in order: 9, 1, 2, 14, -7, 7, 35, -3, -14

Next part:
| No. | molecule | NPYLR7 agonist | NPYLR7 agonist max-min |
| --- | --- | --- | --- |
| 61 | N#CC1(NC(=O)COC(=O)C2=NN(c3ccccc3)C(=O)CC2)CCCC1 | 0 | -2 |
| 62 | COc1ccccc1-c1nc2ccc(C)cn2c1NC(=O)C1CCCCC1 | -4 | 1 |
| 63 | Cc1c(Cn2c(C)nc3c(C(=O)O)cc(N4CCOCC4)cc32)cccc1C(F)(F)F | 6 | 0 |
| 64 | CC(C)(CCl)C(=O)Nc1cccc(C2SCC(=O)N2c2ccc(F)cc2F)c1 (stereo not drawn) | 6 | 14 |
| 65 | CCN1CCN(C(=O)c2cn(CCCOC)cc3c(=O)n(-c4ccccc4)nc2-3)CC1 | -3 | -6 |
| 66 | CC1CCCN(C(=O)CCN2CCC(c3cccc(O)c3)CC2)C1 (stereo not drawn) | 14 | 14 |
| 67 | O=C(NCc1ccco1)c1cc2ccsc2n1CCCc1ccccc1 | -3 | 19 |
| 68 | CCOC(=O)c1c(C)[nH]c(C(=O)CN2C(=O)NC(C)(CC(C)C)C2=O)c1C (stereo not drawn) | 1 | 10 |
| 69 | O=C1NC(=Nc2ccccc2)S/C1=C/c1ccc(O)c(O)c1 | -7 | -11 |
| 70 | CCn1c(C)cc(C(=O)N2CC(c3cccnc3)C2)c1C | 3 | 5 |
| 71 | COc1ccccc1OCCOc1ccc(Cl)cc1Cl | 6 | 3 |
| 72 | O=C(CCC1CCN(CC2CCOC2)CC1)Nc1ccccc1Cl (stereo not drawn) | 18 | 5 |
| 73 | Cc1ccc(CNC(=O)CN2CCSC3COCCC32)cc1 (stereo not drawn) | 1 | 1 |
| 74 | Cc1ccc(C)c(Cn2cnc3c(nnn3Cc3ccc(Cl)cc3)c2=O)c1 | 8 | 6 |
| 75 | CC(C)C1=NN2C(=N)/C(=C/c3ccccc3OS(=O)(=O)c3ccccc3)C(=O)N=C2S1 | -2 | -3 |
| 76 | COCCN(CC(=O)Nc1cc(-c2ccccc2)nn1-c1ccccc1)C(=O)c1ccc(Cl)c(Cl)c1 | 15 | 16 |
| 77 | CCn1c(SCC(=O)Nc2sc3c(c2C#N)CCC3)nnc1C1CC1 | 18 | 7 |
| 78 | CC1CCC(C(C)C)C(NS(=O)(=O)c2cc(C(N)=O)n(C)c2)C1 (stereo not drawn) | -3 | -2 |
| 79 | Cc1nc2sccn2c1CN(C)C(=O)c1ccc2c(c1)CCCC(=O)N2 | -1 | -1 |
| 80 | O=CC1=C(N2CCOCC2)/C(=C\c2ccc(Cl)cc2Cl)CC1 | -1 | -2 |

Looked up by compound from the entries so far, 3 records:
| No. | molecule | NPYLR7 agonist | NPYLR7 agonist max-min |
| --- | --- | --- | --- |
| 80 | O=CC1=C(N2CCOCC2)/C(=C\c2ccc(Cl)cc2Cl)CC1 | -1 | -2 |
| 78 | CC1CCC(C(C)C)C(NS(=O)(=O)c2cc(C(N)=O)n(C)c2)C1 (stereo not drawn) | -3 | -2 |
| 72 | O=C(CCC1CCN(CC2CCOC2)CC1)Nc1ccccc1Cl (stereo not drawn) | 18 | 5 |

(next part)
| No. | molecule | NPYLR7 agonist | NPYLR7 agonist max-min |
| --- | --- | --- | --- |
| 81 | O=C(Cn1nc2c(cc1=O)CCCC2)Nc1ccccc1 | 15 | 14 |
| 82 | CC(C)COc1ccccc1CN(C)C(=O)CC1CCS(=O)(=O)C1 (stereo not drawn) | -1 | 8 |
| 83 | CC(=O)c1cc(C(=O)OCC(=O)Nc2ccccc2C)c2ccccn12 | 7 | -3 |
| 84 | O=C(c1cc2c(s1)CCOC2)N(CC(F)(F)F)c1ccccc1 | 1 | -2 |
| 85 | Cc1ccccc1-c1ncc(CN2CCN(CC3CCCO3)CC2)s1 (stereo not drawn) | -8 | -7 |
| 86 | C#CCOCC(O)CN(Cc1ccc2c(c1)OCO2)Cc1ccc(C)o1 (stereo not drawn) | 18 | 19 |
| 87 | CCC(C(=O)N1Cc2cnc(-c3ccccc3)nc2C1)N1CCOCC1 (stereo not drawn) | -1 | -2 |
| 88 | Cc1nc(C(C)N(C)C(=O)c2ncn[nH]2)c(C)s1 (stereo not drawn) | 14&5 | 12&1 |
| 89 | O=C1NC(=S)S/C1=C\c1cccn1-c1cccc([N+](=O)[O-])c1 | -1 | -5 |
| 90 | COCCNC(=O)c1coc(CN(CCc2c[nH]c3ccccc23)Cc2cc(OC)ccc2OC)n1 | 3 | 8 |
| 91 | COc1ccc(-n2nnnc2CN2CCN(C(=O)c3cc(=O)c4ccccc4o3)CC2)cc1 | -1 | -3 |

Individual results from above:
Reading for COCCNC(=O)c1coc(CN(CCc2c[nH]c3ccccc23)Cc2cc(OC)ccc2OC)n1 in NPYLR7 agonist max-min: 8
Reading for CC(C)COc1ccccc1CN(C)C(=O)CC1CCS(=O)(=O)C1 (stereo not drawn) in NPYLR7 agonist max-min: 8
Reading for CCC(C(=O)N1Cc2cnc(-c3ccccc3)nc2C1)N1CCOCC1 (stereo not drawn) in NPYLR7 agonist: -1
Reading for O=C1NC(=S)S/C1=C\c1cccn1-c1cccc([N+](=O)[O-])c1 in NPYLR7 agonist max-min: -5
Reading for O=C(c1cc2c(s1)CCOC2)N(CC(F)(F)F)c1ccccc1 in NPYLR7 agonist: 1
Reading for Cc1ccccc1-c1ncc(CN2CCN(CC3CCCO3)CC2)s1 (stereo not drawn) in NPYLR7 agonist max-min: -7
Reading for O=C(Cn1nc2c(cc1=O)CCCC2)Nc1ccccc1 in NPYLR7 agonist: 15
